# HCMV UL50-53 inh – inhibitors of HCMV UL50-UL53 interaction, biochemical, HTRF; inhibition, % (no concentration beside the values); HCMV UL50-UL53 nuclear egress complex (human cytomegalovirus); normalized percent inhibition; 0.15% of 190,000 active;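 active = both replicates at 50% or more, plus weaker picks with an unusually low signal ratio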;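 note: stock transfer was 100 nL into about 20 µL; 0% = negative control wells and 100% = wells with untagged competitor protein; inactives centre near -12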
# Numbers without * were called inactive; & = joins results of further samples. Not all compounds are listed; count on the stated rates, not on these rows.
molecule,HCMV UL50-53 inh
O=C1CC(c2ccccc2)SC(c2ccccc2)C1 (stereo not given),-16.6
CC(C)(C)n1nc(-c2ccc(Cl)cc2)c2c(N)ncnc21,0.4&-11.1&-6.4
Brc1ccc(-c2ccnc3ncnn23)cc1,-16.1
COc1ccc(C(=O)NCCc2cc3ccc(C)cc3[nH]c2=O)c(OC)c1,-15.6
COc1ccc(OC)c2c1c(C)cc(=O)n2C,-30.2
O=C(Nc1ccccc1F)c1ccc(S(=O)(=O)N2CCCC2)cc1,-9.5
COc1ccc(CNc2nc(NCc3ccc(OC)cc3)c3ncn(C(C)C)c3n2)cc1,-4.8
CCCCCC/C=C\CCCCCCCCCCOC(C)=O,-29.1&-29.1
Clc1ccc(-c2nnc3n2CCCC3)cc1Cl,-6.4
O=C(NCC1CN(c2ccc(N3CCOCC3=O)cc2)C(=O)O1)c1ccc(Cl)s1 (stereo not given),-19.1
COc1ccc(CCNC(=O)CSc2cn(C)c3ccccc23)cc1OC,-4.3
Cc1nc2ccccc2n1C(=O)/C=C\C(=O)O,-8.0
O=C(CSc1nccn1-c1ccccc1)Nc1ccccc1,-16.6
Cc1cncc(CN2CCC(=C3c4ccc(Cl)cc4CCc4cccnc43)CC2)c1,-7.5
COc1cc(CN2CC(=O)N(CC3CCOCC3)CC(OCc3ccccn3)C2)cc2c1OCO2 (stereo not given),-2.7
Cc1c(C(=O)N2CC(C)OC(C)C2)sc2nc(-c3ccccc3)cn12 (stereo not given),-8.8
O=C(O)c1ccc(-c2ccccc2[N+](=O)[O-])o1,-140.2
O=c1ncn(-c2ncc(C(F)(F)F)cc2Cl)[nH]1,-2.5
O=C(Nc1nc2ccc(Cl)cc2s1)c1ccc(S(=O)(=O)N2CCCCC2)cc1,-4.4
Fc1ccc(C2CCNCC2COc2ccc3c(c2)OCO3)cc1 (stereo not given),-22.0&-38.9
Oc1ccc(C(CCl)n2cncn2)cc1 (stereo not given),-20.6
CCCCCCCC/C=C\CCCCCCCC(=O)OCC(O)COP(=O)(O)O (stereo not given),-15.7&-15.7
Cc1ccc(NC(=O)CSc2nnc(NC(=O)c3cccs3)s2)cc1,-18.8
CCN1CCN(Cc2ccc(NC(=O)c3cc(NC(=O)c4ccc5n[nH]nc5c4)cc(OC)c3)cc2C(F)(F)F)CC1,-0.1
CCCOc1cccc2c1CCN(CC)C2=O,-18.1
O=C(CSc1ncnc2ccccc12)NCC1CCCO1 (stereo not given),2.0
COc1cccc(CN2CCN(C(=O)c3cc4cc(OC)ccc4[nH]3)CC2=O)c1,-22.8
CC(C)NCC(O)COc1ccc2ccccc2c1 (stereo not given),-8.4
CCSc1ncnc2c1oc1ccccc12,-16.2
COCCn1cncc1CNc1nccc(-c2c(C)nn(C)c2C)n1,-26.8&-26.8
Cc1sc(NC(=O)C(c2ccccc2)c2ccccc2)c(C(N)=O)c1C,2.4
CCOc1ccc2c(c1)SC1=NS(=O)(=O)CCN12,-16.4
Cc1cc(=O)[nH]c(SCC(=O)N2CCCC2)n1,-19.3
CC1CC(C)CN(c2ncnc3nc[nH]c23)C1 (stereo not given),-18.1
COC(=O)NC(C(=O)NC(Cc1ccccc1)C(O)CN(Cc1ccc(-c2ccccn2)cc1)NC(=O)C(NC(=O)OC)C(C)(C)C)C(C)(C)C (stereo not given),-12.6
CCCCCCCCCCCC(CC1OC(=O)C1CCCCCC)OC(=O)C(CC(C)C)NC=O (stereo not given),17.8&-64.4
O=C(O)c1ccccc1-c1c2cc(I)c(=O)c(I)c-2oc2c(I)c(O)c(I)cc12,-12.3
Cc1cccc(OCC(O)CN2CCN(c3ccccc3)CC2)c1 (stereo not given),-11.1
COCCn1c(=NC(=O)C2COc3ccccc3O2)sc2ccccc21 (stereo not given),-7.7
OCCNCCCOc1cccc(Cl)c1Cl,-0.1&-26.5&-26.5
CSc1ccc(C(N)CCO)cc1 (stereo not given),-10.9
Cc1[nH]c(C=C2C(=O)Nc3ccc(S(=O)(=O)N(C)c4cccc(Cl)c4)cc32)c(C)c1C(=O)N1CCN(C)CC1,-16.1
CCC1(C)OC(=O)N(C)C1=O (stereo not given),-59.0
O=C(COc1ccc(Cl)cc1)NCc1nnc(SC/C=C/c2ccccc2)o1,-17.1
Oc1cccc(-c2ccc3ccccc3n2)c1,-19.2
CCN(C(=O)c1cc2cc(OC)ccc2oc1=O)C1CCCCC1,1.9
COC(=O)CSc1nnc(-c2cccs2)n1-c1ccc(Cl)cc1,8.3&-6.8
O=C(O)Cc1ccc([N+](=O)[O-])cc1,-41.4
CC(=O)Nc1ccc(N2C(=O)C=CC2=O)cc1,-3.7
CC1CCN(S(=O)(=O)c2ccc(Cl)s2)CC1,-8.6
O=C(Nc1nc2ccccc2s1)c1cccn(OCc2ccccc2)c1=O,-10.5
CCC(CO)Nc1nc(C)nc2sc3c(c12)CCCC3 (stereo not given),-3.2
COc1cccc2c(=O)n(CC(=O)NCc3ccccc3)ccc12,2.8
CN(C)c1ncc(CN2CCc3c(cc(Cc4ccccc4)c(=O)n3Cc3ccc(F)cc3)C2)s1,-20.2
CCOc1cccc(C2C(C(=O)c3ccc(C)o3)=C(O)C(=O)N2Cc2ccccc2)c1 (stereo not given),0.9
C1CN=C(NC23CC4CC(CC(C4)C2)C3)C1,-0.5
O=C1NCCC(=NNc2cccnc2)c2c1[nH]c1ccc(Cl)cc21,-20.0
O=C(O)c1ccc(N2C(=O)C3C4C=CC(C4)C3C2=O)cc1 (stereo not given),-6.8
Cc1ccc(C(=O)CSc2nc(C(F)(F)F)cc(=O)n2-c2ccccc2)cc1,-5.6
Cc1cc(NC(=O)Cn2ccc(-c3cccc(F)c3)n2)n(-c2ccccn2)n1,2.2

# The last 2 compounds of the part before are carried over, then new ones follow:
molecule,HCMV UL50-53 inh
Cc1ccc(C(=O)CSc2nc(C(F)(F)F)cc(=O)n2-c2ccccc2)cc1,-5.6
Cc1cc(NC(=O)Cn2ccc(-c3cccc(F)c3)n2)n(-c2ccccn2)n1,2.2
O=C(Nc1ccc2sccc2c1)c1ccc(S(=O)(=O)N2CCCC2)cc1,-5.7
CCC(C)(C)C(=O)C(=O)N1CCCC[C@H]1C(=O)O[C@H](CCc1ccc(OC)c(OC)c1)c1cccc(N)c1,-27.8&-27.8
O=C(CCSCc1ccccc1F)N1CCN(c2cccc(Cl)c2)CC1,-9.7
O=C(O)c1cc(Br)ccc1NS(=O)(=O)c1ccc(Cl)cc1,-7.7
O=S(=O)(CCc1ccccc1)N1CCOCC1,-16.4
CC(=O)OC1C(C)OC(Oc2c(-c3ccc(O)cc3)oc3cc(O)cc(O)c3c2=O)C(O)C1OC(C)=O (stereo not given),-9.0
CCOC(=O)c1cc(Sc2ccccc2NC(=O)c2ccccc2)cc(C(=O)OCC)n1,18.8
Cn1c(=NC(=O)c2ccc(Cl)s2)sc2cc(S(C)(=O)=O)ccc21,6.0&-1.6
Cc1[nH]c2ccccc2c1C(c1cccs1)N1CCCC1 (stereo not given),-12.4
COc1ccc(C(=O)Nc2nnc(-c3ccccc3C)s2)cc1OC,-20.1
CCCOCCCCCCCCCC(=O)O,-0.2&-0.2
CC(O)Cn1cnc2c1c(=O)n(C)c(=O)n2C (stereo not given),-3.9
OCCCc1nc2ccccc2n1Cc1ccccc1Cl,-3.7
CSc1nc2c(cnn2-c2ccccc2)c(=O)[nH]1,9.5
CN1CCN(S(=O)(=O)c2cccc3ccccc23)CC1,-19.4
N#Cc1ccc(-n2cccc2)nc1,7.0
COC(=O)C(NC(=O)c1c(C)nn(C)c1Cl)c1ccccc1 (stereo not given),2.5
CC(C)N1C(=O)N(C)C2(CCN(Cc3ccc4c(c3)Cc3ccccc3-4)CC2)C1=O,10.2
O=C(NCc1cccc(F)c1)N[C@H]1C[C@H]2C(=O)N[C@@H](COCc3ccccc3)C(=O)N2C1,-0.3
CSC(=NCc1ccc(C)cc1)Nc1ccccc1,2.7

# (further entries)
molecule | HCMV UL50-53 inh
CCCCCCCCCCCCCCCC(=O)N[C@H]1CCOC1=O | 2.5&2.5
C[C@H](NCCc1ccc(O)cc1)[C@H](O)c1ccc(O)cc1 | -1.1&-18.8
CC(C)(C)Nc1nc(N)c(C(=O)c2ccccc2)s1 | -32.3
CC1CC=CC=CC=CC=CC(O[C@@H]2OC(C)C(O)C(N)C2O)C[C@@H]2O[C@](O)(CC(O)C[C@H]3OC3C=CC(=O)O1)CC(O)C2C(=O)O (stereo not given in full) | 1.9
CSc1nc2c(c(=O)n1-c1ccccc1)SCC2 | -21.6
O=C(O)CCC/C=C\C[C@H]1C(=O)C=C[C@@H]1/C=C/[C@@H](O)COc1ccccc1 | -13.0&-13.0
CC1(C)CC(=O)c2c(C(F)(F)F)nn(-c3ccc(C(N)=O)c(NC4CCC(OC(=O)CN)CC4)c3)c2C1 (stereo not given) | 13.0
Cc1cc(C)n(-c2nc(-c3ccccc3)cs2)n1 | -3.3
O=C1C(CN2CCCCC2)CCCC1CN1CCCCC1 (stereo not given) | 5.5
CC1(C)CC(NC(=O)CNc2ccccc2)CC(C)(C)N1 | 3.2
COC(=O)C1=C(C)NC(SCC(=O)NC2CCCCC2)=C(C#N)C1c1ccccc1F (stereo not given) | -5.4
Cc1nc(-c2cccc(NC(=O)/C=C\C(=O)O)c2)cs1 | 2.6
CCC(=O)N=c1sc2cc(C)ccc2n1C | -14.7
COc1cccc(CN2CCN(Cc3cccnc3)CC2)c1 | -5.2
CCC12CC3CC(CC(N)(C3)C1)C2 | -4.6
COC(=O)C1C(=O)NC(SC)=C(C#N)C1c1ccc(Cl)cc1 (stereo not given) | 4.0
CCCCCC(O)/C=C/C=O (stereo not given) | -15.3&-15.3
CCCn1c(C(C)NC(=O)c2ccccc2)nc2ccccc21 (stereo not given) | -0.2
COc1cccc(C(=O)N=c2sc3cc(S(C)(=O)=O)ccc3n2C)c1 | 16.5
Cc1oc2cc(O)ccc2c(=O)c1-c1nc2ccccc2[nH]1 | -8.0
CC(S)C(=O)NCC(=O)O (stereo not given) | -6.3&-39.7
O=C(Sc1ccccc1)c1cccc(Cn2cc(C(F)(F)F)ccc2=O)c1 | -9.2
N#Cc1ccc(C(=O)Nc2sc3c(c2C#N)CCC3)cc1 | -27.3
COc1ccccc1N(C(C)=O)S(=O)(=O)c1ccc(Cl)cc1 | -13.7

# Rewritten field by field: part of the list above
Cc1cc(NC(=O)Cn2ccc(-c3cccc(F)c3)n2)n(-c2ccccn2)n1
  HCMV UL50-53 inh: 2.2
O=C(Nc1ccc2sccc2c1)c1ccc(S(=O)(=O)N2CCCC2)cc1
  HCMV UL50-53 inh: -5.7
CCC(C)(C)C(=O)C(=O)N1CCCC[C@H]1C(=O)O[C@H](CCc1ccc(OC)c(OC)c1)c1cccc(N)c1
  HCMV UL50-53 inh: -27.8&-27.8
O=C(CCSCc1ccccc1F)N1CCN(c2cccc(Cl)c2)CC1
  HCMV UL50-53 inh: -9.7

# Next records
molecule | HCMV UL50-53 inh
O=S(=O)(NCCCN1CCOCC1)c1ccc2ccccc2c1 | -16.8
O=C(Nc1ccc(-c2csc(Nc3ccc(Cl)cc3)n2)cc1)c1ccccc1 | -0.3
COc1cc(/C=C2\SC(=S)N(C(C)C)C2=O)ccc1OCC(N)=O | -4.2
O=c1cc(CO)oc(CN2CCN(c3ccccc3F)CC2)c1O | -23.0
Cc1cc(C)cc(-n2nc3c(c2NC(=O)c2cccs2)CSC3)c1 | 11.7
O=P(O)(O)OC1[C@H](OP(=O)(O)O)[C@H](O)C(O)[C@H](O)[C@H]1OP(=O)(O)O (stereo not given in full) | -18.8&-18.8
Nc1nn(-c2ccc(Cl)cc2Cl)cc1-c1cccs1 | -5.7
O=C(COc1ccccc1)Nc1nc2ccc(Cl)cc2s1 | 4.0
Clc1ccc(CN2CCC(Cc3ccccc3)CC2)cn1 | 1.4
CN1CCN(Cc2cccc3cccnc23)CC1CCO (stereo not given) | -12.9&-12.9
COc1ccccc1NS(=O)(=O)/C=C/c1ccccc1 | -25.3
Cc1ccc(CNc2ncnc3nc[nH]c23)cc1 | -17.5
COc1ccc(CN2CCN(c3cc(C)nc(N)n3)CC2=O)cc1 | 45.4&45.4
CC(C)c1ccc2c(c1)CC[C@H]1[C@](C)(CN)CCC[C@]21C | -5.7&-19.2&-19.2
CC[C@]1(O)CC2CN(CCc3c([nH]c4ccccc34)[C@@](C(=O)OC)(c3cc4c(cc3OC)N(C)C3[C@@](O)(C(N)=O)C(O)[C@]5(CC)C=CCN6CC[C@]43C65)C2)C1 (stereo not given in full) | -34.8
CCOC(=O)N1CCN(CC(O)COc2cc(C)ccc2C(C)C)CC1 (stereo not given) | -11.6
CC(C)N1CCN(c2ccc(C(=O)c3c(-c4ccc(O)cc4)sc4cc(O)ccc34)cc2)CC1 | 5.6
Oc1c(C(c2ccccc2)N2CCOCC2)ccc2cccnc12 (stereo not given) | -24.7
O=C(Nc1ccc2sccc2c1)C1COc2ccccc2O1 (stereo not given) | 0.4
Cc1ccc(-c2csc(NC(=O)/C=C/c3ccccc3)n2)o1 | -7.4
CCCC1([C@@H](O)C/C=C/[C@H]2C(O)CC(=O)[C@@H]2CCCCCCC(=O)OC)CCC1 (stereo not given in full) | -11.9&-11.9
O=C(OCc1ccccc1)[C@H](O)c1ccccc1 | -9.5&-9.5
Cn1c(=NC(=O)COc2ccccc2)sc2ccccc21 | 10.5
CCC(CC)NC(=O)C1C(=O)N(C)C2(C)CC1c1ccccc1O2 (stereo not given) | -15.7
CSc1ccc(-c2cn3ccsc3n2)cc1 | -14.6
COc1ccccc1N1CCN(S(=O)(=O)/C=C/c2ccccc2)CC1 | 7.6
Cc1ccc(NC(=O)c2ccc3nccnc3c2)cn1 | 8.2&8.2
O=C(NCCn1ccc2ccccc21)C1CCCCC1 | -0.5
N#Cc1nc(CNc2ccccc2)oc1Nc1ccccc1 | -7.2
CCCCC[C@H](O)/C=C/[C@@H]1[C@@H](C/C=C\CCCC(=O)N(CC)CC)[C@@H](O)C[C@H]1O | 8.8&8.8
O=C(Nc1nc(=S)ss1)c1ccc(Cl)cc1 | -0.3
CC(C)Sc1ncnc2c1oc1ccccc12 | -6.0
CCCCCC1OC1C/C=C\C/C=C\C/C=C\CCCC(=O)O (stereo not given) | -7.5
COc1ccc(-n2ccnc2SCC(=O)Nc2nccs2)cc1 | -10.5
